TRPML1 blocker – blocks the human TRPML1 channel. Q9GZU1. AID 624415. TRPML1-inducible cells, Ca2+ dye fluorescence, FDSS; hits give low values; inhibition of EC80 agonist-evoked calcium signal. activity change, negative = inhibition, % (concentration not given with the values). actives 0.02% (n = 390,000); in the data active means activity change below about -50%; inconclusive means about -30% to -50%; inactive means above about -30%;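 also: stimulus is agonist 54-4 at its EC80 concentration; % is scaled to controls: 0 for no effect and ±100 for the full control effect; compound concentration not given in the record; the text of the record puts the active cut at -80%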
Target sequence (Q9GZU1 whole entry, looked up): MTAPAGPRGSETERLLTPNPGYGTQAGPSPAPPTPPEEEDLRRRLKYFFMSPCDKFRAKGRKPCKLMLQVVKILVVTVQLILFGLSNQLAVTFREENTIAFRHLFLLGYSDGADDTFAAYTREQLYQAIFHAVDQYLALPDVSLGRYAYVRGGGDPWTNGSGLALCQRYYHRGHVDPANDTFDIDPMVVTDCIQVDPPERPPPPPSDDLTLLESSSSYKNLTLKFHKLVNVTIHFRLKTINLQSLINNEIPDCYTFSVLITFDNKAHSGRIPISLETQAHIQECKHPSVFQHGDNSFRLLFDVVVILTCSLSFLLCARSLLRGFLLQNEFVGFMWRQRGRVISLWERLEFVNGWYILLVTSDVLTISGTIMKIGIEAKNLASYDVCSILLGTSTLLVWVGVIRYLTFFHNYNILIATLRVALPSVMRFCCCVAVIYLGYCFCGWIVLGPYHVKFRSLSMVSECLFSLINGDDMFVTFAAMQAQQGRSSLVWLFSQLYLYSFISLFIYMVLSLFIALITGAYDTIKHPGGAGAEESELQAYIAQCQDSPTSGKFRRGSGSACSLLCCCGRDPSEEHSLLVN
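TRPML1-DL cells, Tet-induced overnight (~16 h, 37 °C) at 1,500 cells/well, were loaded with Ca8 no-wash dye plus quencher for 45-90 min at room temperature. Compounds were pinned during FDSS kinetic reading; agonist 54-4 at EC80 (4 uM final) then added.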
Six1-Eya2 inh – blocks human Six1 binding to Eya2. Q15475+O00167. AlphaScreen GST-Six1/His-Eya2 binding, biochemical; hits give low values; control for the full effect not named in the record. activity change, % (no concentration beside the values). actives 0.56% (n = 360,000). AID 651725; in the data active = activity change below about -65%; inconclusive = about -30% to -65%; inactive = above about -30%; also: % is scaled to controls: 0 for no effect and ±100 for the full control effect; compound concentration not given in the record
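AlphaScreen with GST-Six1 and His-Eya2 (5X mix: 250 nM and 500 nM), glutathione donor and nickel acceptor beads; buffer 50 mM Tris pH 8.0, 300 mM NaCl, 1 mM TCEP; 1 h at 37 C in the dark.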
TRPML1 ag – human mucolipin-1 channel agonism; Q9GZU1; TRPML1-expressing cells, Ca2+ dye fluorescence, FDSS; host cell line not named in the record; reference of the full effect not given here; activation, % (concentration not given with the values); actives 0.12% (n = 410,000); in the data active = activation above about 50%; inconclusive = about 30% to 50%; inactive = below about 30%; also: 0% is about no effect; the text of the record puts the active cut at 80%
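Tetracycline-induced TRPML1-DL cells are seeded and incubated overnight before loading with a no-wash Ca2+ dye and quencher. Agonist activity is taken from the 110 s fluorescence read following compound pin-transfer on an FDSS, before EC80 54-4 challenge.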
D2 agonist – agonists of human D2 dopamine receptor (beta-arrestin); P14416; DiscoveRx PathHunter D2 beta-arrestin, luminescence, 90 min; 100% = 57 uM dopamine signal; actives 0.084% (n = 360,000); activation, % (concentration not given with the values); in the data active = activation above about 40%; inconclusive = about 15% to 40%; inactive = below about 15%; also: compound concentration not given in the record; the text of the record calls up to 30% inactive
Target sequence (P14416 whole entry, looked up): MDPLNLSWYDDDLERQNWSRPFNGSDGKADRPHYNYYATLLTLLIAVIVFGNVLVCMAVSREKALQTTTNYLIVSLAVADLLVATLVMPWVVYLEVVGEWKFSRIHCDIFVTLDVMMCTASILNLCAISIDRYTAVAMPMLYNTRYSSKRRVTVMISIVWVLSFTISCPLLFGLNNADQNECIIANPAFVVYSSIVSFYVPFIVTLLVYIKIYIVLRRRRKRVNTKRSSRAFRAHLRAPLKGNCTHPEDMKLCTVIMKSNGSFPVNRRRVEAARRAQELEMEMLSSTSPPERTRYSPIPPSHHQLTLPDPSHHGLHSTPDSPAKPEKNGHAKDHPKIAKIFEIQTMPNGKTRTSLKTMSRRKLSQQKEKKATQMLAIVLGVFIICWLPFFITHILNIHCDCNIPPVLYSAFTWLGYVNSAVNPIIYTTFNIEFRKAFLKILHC
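DiscoveRx PathHunter D2 beta-arrestin cells (2,100/well) attached overnight, then compound-stimulated 90 min at 37 C in HBSS/10 mM HEPES/0.1% Tween-20 buffer; beta-galactosidase complementation read by luminescence after 1 h at ambient temperature. Dopamine 57 uM final (EC100) as control.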
PINK1 expr mod – changes PINK1 expression; PINK1 immunofluorescence, high-content cytometry, 24 h; Potency, µM (doses to about 76.6 µM), for the others: at the top dose activation (PINK1 increase), actives largely listed as activators; actives 0.2% (n = 410,000); AID 624263; active = well fitted activation curve with a large enough effect; inconclusive = small, poorly fitted or top-dose-only effect; inactive = flat fitted curve, though single readings scatter; cell line not stated here;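 also: potency is read from the fitted curve at half-maximal effect; % of control where 0% means no effect; nearly all actives have a fitted effect of over 65% in size; a mitochondrial uncoupler was the plate control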
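PINK1 protein level read as immunofluorescence by microplate cytometer in a fixed, stained stable cell line after 24 h exposure to five compound concentrations, with CCCP as control.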
D2 PAM – positive allosteric modulators of human D2 dopamine receptor; P14416; DiscoveRx D2 beta-arrestin cells, luminescence, 90 min; 100% = 57 uM dopamine signal; potentiation, % (concentration not given with the values); actives 0.23% (n = 360,000); AID 624464; active = potentiation of 50% or more; inconclusive = 30% to 50%; inactive = 30% or less;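 also: compound concentration not given in the record; tested on top of an EC20 dose of dopamine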
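PathHunter beta-arrestin assay in DiscoveRx D2 cells. Compounds were added with an EC20 of dopamine (50 nM final) for 90 min at 37 deg C. Luminescence was read 1 h after detection reagent, with 57 uM dopamine as the EC100 control.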
The depositor's hits bear a star; ? = inconclusive; . = not tested or not shown; & = joins results of further samples; [ ] = another dose, or the depositor's remark. Not a hit list, and some 1% of all compounds hit somewhere here.

SMILES	TRPML1 ag	TRPML1 blocker	D2 agonist	PINK1 expr mod	Six1-Eya2 inh	D2 PAM
Cc1cc(C)c(C)c(S(=O)(=O)NC(C)C(=O)O)c1C (configuration not stated)	0.0	-1.0	-2.3	2.1%	13.9	-10.7
Cc1ccc(Nc2nc(-c3sc(NC(=O)c4ccccc4)nc3C)cs2)cc1	-0.3	-16.0	-2.3	4.2%	-10.8	-32.9
Clc1ccc(OCCN2CCOCC2)cc1Cl	-1.3	8.7	-1.6	0.8%	4.8	-39.1
COc1ccccc1C(=O)N1CCCC1(C#N)c1ccccc1 (configuration not stated)	-1.7	-21.2	-3.7	-0.1%	30.4	-2.5
O=C(NCc1ccc2c(c1)OCO2)C1Cc2ccccc2CN1C(=O)c1ccco1 (configuration not stated)	-0.2	25.3	-2.1	1.2%	2.1	-0.1
CC(C)C[C@H]1CN([C@@H](Cc2ccccc2)CN2CCC[C@@H]2CN2C(=O)C(=O)NC[C@@H]2Cc2ccccc2)C(=O)C(=O)N1CC1CCCCC1	0.2	-6.9	3.7	6.4%	-5.5	-0.8
CCOC(=O)CCC(=O)NNC(=O)COc1ccc(C(C)C)cc1Br	1.4	4.2	-2.2	-0.5%	12.9	-3.2
COc1ccccc1-c1cn(-c2ccccc2)c(=S)[nH]1	-0.4	-8.7	1.1	1.2%	6.9	-16.9
O=C(CN1C(=O)C2CC=CCC2C1=O)Nc1ccc(-c2nnc3n2CCCCC3)cc1 (configuration not stated)	2.3	9.2	0.4	0.8%	1.8	4.8
Cc1ccc(S(=O)(=O)N2[C@@H](c3cccc(Cl)c3)C(C(=O)OC(C)(C)C)=CC[C@H]2c2cccc(Cl)c2)cc1	-0.2	50.2	-4.4	5.5%	5.4	-4.2
COc1ccccc1C1=NOC(C)(c2nnc(-c3cccc(Cl)c3)o2)C1 (configuration not stated)	1.6	-1.2	2.6	-0.5%	-4.4	-1.3
O=C(NCCc1ccc(Cl)cc1)C1CCCN(S(=O)(=O)c2cnc[nH]2)C1 (configuration not stated)	0.3	13.0	-3.7	-0.4%	5.5	-10.3
CC(C)(C)n1cnc2cc(NC(=O)c3ccc(Cl)cc3)ccc21	-0.1	-1.4	-0.1	4.4%	-0.4	-3.4
O=C1CN(C(=O)Nc2ccccc2Cl)C(c2ccccc2)c2c(sc3c2CCCC3)N1 (configuration not stated)	0.2	-2.3	.	2.8%	.	.
COCC(C)NC(=O)NC1(C(F)(F)F)Oc2ccc(Cl)cc2O1 (configuration not stated)	0.8	-7.8	5.8	0.8%	-2.8	6.9
O=S(=O)(NCC(Nc1ccc(Cl)cc1)c1ccccc1)c1ccc(Cl)cc1 (configuration not stated)	3.0	5.5	4.8	-1.1%	4.3	-3.0
CN1CCc2c(sc3c2c(=O)n(-c2ccccc2)c2nnc(SCc4ccccc4)n32)C1	3.2	13.0	-0.6	-0.3%	1.0	-14.7
CCOC(=O)C1=C(COC(=O)C(CC)Oc2ccccc2)NC(=O)NC1C (configuration not stated)	0.2	-8.1	-5.5	-0.8%	0.3	-16.7
O=C(Nc1ccc(F)cc1)C(=O)c1cn(CC(=O)N2CCOCC2)c2ccccc12	-0.6	6.4	0.6	6.6%	1.3	0.3
CSc1ccc(/C=C(/NC(=O)c2ccccc2)C(=O)N2CCN(C)CC2)cc1	-0.6	-4.9	-5.1	1.5%	-0.3	0.6
COc1cc(CC(=O)Nc2cccc(SC)c2)cc(OC)c1OC	0.4	30.5	4.3	0.0%	-2.4	-1.9
Cc1cccc(Oc2nc3ccccn3c(=O)c2/C=C(\C#N)C(=O)NC2CCS(=O)(=O)C2)c1C (configuration not stated)	0.6	-4.2	-1.4	-2.6%	28.2	-0.5
c1ccc(-c2csc(Cc3nnc4n3CCCCC4)n2)cc1	2.1	6.9	4.1	6.1%[38.3 µM]	-0.4	5.2
CCOC(=O)c1cc2c(=O)n3ccccc3nc2n(CC2CCCO2)c1=NC(=O)c1ccc(OC)cc1OC (configuration not stated)	1.4	6.1	.	-0.8%	.	.
Cc1cc(C(=O)Nc2nnc(-c3ccccc3)s2)no1	-0.1	7.4	-2.0	-0.8%	2.0	-3.7
O=C(CS(=O)CC(=O)Nc1ccc(Cl)cc1)NCC1OCCc2ccccc21 (configuration not stated)	0.6	7.4	?	0.5%	-6.4	-2.3
COc1ccc(/C=N/n2cncn2)cc1Cn1nc(C)c([N+](=O)[O-])c1C	0.3	-14.3	3.7	-1.1%	-2.7	0.4
Cc1c(Cc2ccccc2)c(=O)n2c([nH]c3ccccc32)c1C#N	.	.	4.2	?	-1.3	-10.1
CCN(Cc1ccccc1)S(=O)(=O)c1cc(C(=O)NCCCN(C)C)ccc1OC	-0.3	-15.7	-3.8	2.3%	6.8	-7.2
COc1ccc(C(=O)Nc2ccc(C(F)(F)F)n(C)c2=O)cc1	1.0	17.5	0.7	2.1%	-9.0	-6.5
O=C(N/N=C1\C2CN3CCN(C2)CC1(c1ccccc1)C3)c1ccc(F)cc1	1.9	4.7	-1.0	1.3%	-2.4	-9.9
CCCOc1ccc(NC(=O)CC2C(=O)OCC3CCCCN32)cc1 (configuration not stated)	-0.1	-5.1	0.8	5.0%	-0.5	-2.1
CN(Cc1cnccn1)C(=O)CC1C(=O)NCCN1Cc1c(F)cccc1Cl (configuration not stated)	-0.1	-18.1	-3.7	-1.1%	5.5	-7.9
COc1ccc2[nH]c3c(c2c1)CCN1C(=O)C(CC(=O)NC(C)(C)C)C[C@H](C(=O)N2CCOCC2)[C@@]31CCC1CCCC1 (some centres not stated)	-0.4	-12.0	-2.7	5.7%	1.7	-4.9
COc1ccc(OCC(=O)Nc2ccc(N3CCCCC3)cc2)cc1	3.2	28.8	-1.9	-1.7%	-7.6	-1.6
O=C(C(=Cc1ccccc1)c1ccccc1)c1ccccc1	-0.3	.	-2.5	3.3%	13.9	-2.3
Cc1ccccc1Cn1nnc(-c2ccc3c(c2)OCO3)n1	4.1	-19.0	0.5	0.9%	30.4	-10.3
Cc1ccc(-c2oc3ccccc3c(=O)c2O)cc1	0.7	42.5	1.3	1.0%	5.4	-3.6
CCOP(=O)(c1ccc(N(C)C)cc1)C(O)c1cccnc1 (configuration not stated)	0.4	-4.0	3.4	2.5%	0.5	-9.1
O=C(COc1ccc(Cl)cc1Cl)NNC(=S)NC(=O)c1ccco1	4.6	18.1	-7.4	0.9%	1.8	-8.7
O=C(c1ccc(S(=O)(=O)N2CCCCC2)cc1)N1CCN(Cc2ccc3c(c2)OCO3)CC1	-1.6	3.3	-1.1	1.9%	-8.4	-2.6
CCc1cc(=O)oc2cc(C)cc(OCC(=O)NC3CC3)c12	0.0	11.5	-5.9	-1.9%	-3.6	-6.4
O=C(CCN1C(=O)c2ccccc2C1=O)NCc1ccccc1	0.3	-3.6	6.1	1.4%	19.3	-2.5
CCc1ccccc1NC(=O)C1CCN(c2nn3c(=O)cc(C)nc3s2)CC1	0.4	7.0	.	0.1%	.	.
CCOc1ccc(NC(=O)Nc2ccc3c(c2)nc(C)n3C)cc1	.	.	-4.2	1.4%	-0.6	-14.3
CCOc1ccc(C(C)(C)C)cc1S(=O)(=O)N1CC(C)OC(C)C1 (configuration not stated)	0.9	-14.1	-3.3	0.2%	23.9	1.2
COc1ccc(NC(=O)C(CCSC)NC(N)=O)cc1Cl (configuration not stated)	0.1	-19.4	-0.3	2.7%	0.0	-5.1
O=C(CSc1nnnn1-c1ccc2c(c1)CCC2)NCc1cccs1	-0.5	-11.4	0.0	1.5%[38.3 µM]	-0.5	-5.4
NC(=O)CSc1ccc(F)cc1	-0.3	-7.9	1.8	0.0%	6.6	-0.8
CC(C)Oc1ccc(C(=O)Nc2ccc(S(=O)(=O)N3CCN(C)CC3)cc2)cc1	0.2	2.9	-4.1	10.4%	-10.7	0.2
COc1ccc(CC(=O)Nc2nnc3n2CCS3)cc1	1.0	-1.6	.	-2.7%	.	.
CC(=O)NCCOc1ccc2oc3ccccc3c2c1	3.5	0.5	-2.6	-0.3%	-0.5	-9.9
Cc1cc(Cl)ccc1OCC(O)CNCCc1ccc(S(N)(=O)=O)cc1 (configuration not stated)	6.8	8.7	-5.7	0.3%	0.3	-16.7
Cc1oc2ncnc(N3CCCCC3)c2c1C(=O)NCC1CCN(Cc2ccc(F)cc2)CC1	-0.9	-6.9	.	0.3%	.	.
Cc1ccccc1C(=O)c1cn[nH]c1-c1ccccc1O	2.0	12.4	5.9	-1.4%	-5.0	-1.9
COc1ccc(C(=O)N2CCN(C)C(C)C2)cc1OC1CCN(C(C)=O)CC1 (configuration not stated)	-0.1	-2.3	-3.6	1.6%	0.6	-4.1
COc1cccc(-n2c(SCC(=O)N3CCCCC3)nc3c([nH]c4ccccc43)c2=O)c1	-0.9&1.5	-2.1&0.8	-1.0	12.7%&-2.5%	-5.7	-1.1
c1ccc(CN2c3ccccc3-c3nc4ccccc4n3C2c2ccccn2)cc1 (configuration not stated)	-0.3	-1.3	1.9	.	-1.6	6.6
CCCN(CC(=O)Nc1ccccc1C)C(=O)c1ccc(N2CCCC2)c([N+](=O)[O-])c1	0.9	12.6	-2.3	1.4%	-3.7	-10.0
COc1cccc(-c2nc(CS(=O)(=O)CC(=O)N3CCOCC3)c(C)o2)c1	-0.5	-3.2	3.2	0.0%	-0.3	-4.3
CCNC(=O)N1CCOCC1	1.0	6.0	-1.3	.	-5.2	-7.4
COc1cc(SC)ccc1C(=O)N1CCN(S(=O)(=O)/C=C/c2ccccc2)CC1	2.5	-9.7	-0.6	0.6%	-0.8	1.4

Compound profiles, from the list above. Order of values: TRPML1 ag, TRPML1 blocker, D2 agonist, PINK1 expr mod, Six1-Eya2 inh, D2 PAM
Cc1cc(Cl)ccc1OCC(O)CNCCc1ccc(S(N)(=O)=O)cc1 (configuration not stated) in the list: 6.8, 8.7, -5.7, 0.3%, 0.3, -16.7
c1ccc(CN2c3ccccc3-c3nc4ccccc4n3C2c2ccccn2)cc1 (configuration not stated) in the list: -0.3, -1.3, 1.9, ., -1.6, 6.6
